eIF4H FP inh – inhibitors of RNA binding by human eIF4H | Q15056 | eIF4H fluorescence polarization binding assay | actives 0.94% (n = 290,000) | inhibition, % at 35 µM;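 active = 50% or more with normal probe brightness, or confirmed in later tests; inconclusive = above 50% with abnormal brightness, or retests that disagree; inactive = below 50% or failed in later tests; about a fifth of its hits are not listed in these tables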;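 note: calls also rest on retests at 20 µM and on dose response follow-up; 0% = protein and probe with vehicle and 100% = probe without protein; strong numbers were not always called active; many hits fall short of the cut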
UUG fidelity – modulators of start codon recognition fidelity in yeast | activity score, % at 18.7 µM | actives 0.13% (n = 350,000) | S. cerevisiae UUG-firefly luciferase reporter, luminescence/redox ratio;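 active = replicate mean at a twofold rise or more, about +100% in these data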;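 note: firefly luciferase made from a UUG start codon reports start codon fidelity; reporter light over untreated wells divided by growth signal over untreated wells; some hits fall short of that in this replicate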
PABP FP inh – PABP-poly(A) binding inhibition; P11940; inhibition, % at 35 µM; actives 1% (n = 290,000); AID 2014; PABP-poly(A) RNA binding, fluorescence polarization;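 active = 50% or more with normal probe brightness, or confirmed in later tests; inconclusive = above 50% with abnormal brightness, or retests that disagree; inactive = below 50% or failed in later tests; about a fifth of its hits are not listed in these tables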;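 note: calls also rest on retests at 20 µM and on dose response follow-up; controls were probe without protein and protein plus probe with vehicle; some compounds called inactive have numbers as strong as hits; many hits fall short of the cut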
Target sequence (P11940 whole entry, looked up): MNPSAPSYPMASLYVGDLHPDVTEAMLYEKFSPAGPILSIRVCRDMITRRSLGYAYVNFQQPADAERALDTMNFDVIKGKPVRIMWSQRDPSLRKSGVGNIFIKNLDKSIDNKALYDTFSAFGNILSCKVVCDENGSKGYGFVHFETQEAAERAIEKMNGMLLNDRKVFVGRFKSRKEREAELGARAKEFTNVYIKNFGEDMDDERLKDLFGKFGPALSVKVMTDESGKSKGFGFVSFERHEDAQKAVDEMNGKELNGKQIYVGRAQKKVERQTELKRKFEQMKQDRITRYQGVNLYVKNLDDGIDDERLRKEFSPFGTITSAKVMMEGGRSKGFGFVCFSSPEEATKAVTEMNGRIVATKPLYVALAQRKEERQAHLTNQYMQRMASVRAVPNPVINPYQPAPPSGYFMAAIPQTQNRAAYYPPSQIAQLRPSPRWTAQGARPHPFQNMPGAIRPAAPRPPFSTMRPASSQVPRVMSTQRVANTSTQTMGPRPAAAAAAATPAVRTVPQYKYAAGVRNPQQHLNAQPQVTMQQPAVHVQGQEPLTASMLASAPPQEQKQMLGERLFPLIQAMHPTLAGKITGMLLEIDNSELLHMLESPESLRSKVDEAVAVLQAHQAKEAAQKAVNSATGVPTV
CSC inhib – blocks cancer stem cells | inhibition, % at 7.5 µM | actives 1.1% (n = 300,000) | cancer stem cell-like cells viability, luminescence | AID 2717;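 active = mean at 75% or more and at least half the replicates too; inconclusive = mean and replicates disagree; tested in HMLE shEcad cells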;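 note: 0% = median of negative and 100% = median of positive control wells; the first replicate is given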
MT1-MMP act inh – blocks activation of human MT1-MMP | GFP/RFP ratio change, % at 20 µM | actives 0.061% (n = 360,000) | HT1080 RFP-PRO-GFP cells, GFP/RFP ratio fluorescence, overnight; percent of plate control window, DMSO zero | P50281;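 active = GFP/RFP ratio change of at least 30% with cell ATP level not reduced by more than half and red fluorescence within 50% of control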; note: strong numbers were not always called active
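Assay system: HT1080 RFP-PRO-GFP cells | Dosing: 20 µM single dose, 1% DMSO | Incubation: Cells overnight before dosing, compound overnight, 37 °C, 5% CO2 | Evaluation: GFP/RFP fluorescence ratio | Control set: DMSO-only wells and HT1080 RFP-L50D-GFP cell wells as references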
Env fusion inh – HIV envelope-mediated fusion inhibition | HeLa-JRFL Env/CEM21 cell fusion, luciferase | inhibition, % at 12.3 µM | actives 1.1% (n = 360,000) | AID 651610;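 active = mean replicate inhibition score of at least 50 and every replicate individually at or above 50; inconclusive = only one of the two criteria met; inactive = mean below 50 and not all replicates reaching 50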;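 note: 0% = plate neutral controls and 100% = maraviroc near 300 nM; one replicate is shown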
Rce1 inhib – inhibitors of yeast Ras-converting enzyme | actives 0.27% (n = 290,000) | Q03530 | yeast membranes, quenched prenylated peptide cleavage fluorescence | calls only;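 active = fall in fluorescence gain of 50% or more versus controls, with final raw signal at or below 3038400; inconclusive = same 50% fall but final raw signal above 3038400; inactive = fall in fluorescence gain under 50%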;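 note: plate controls were neutral control wells for no effect and wells lacking membranes for full effect; tested at 10 µM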
MT1-MMP act inh RFP – also measured in MT1-MMP act inh; calls as there; RFP signal change, %; measured here: RFP expression control read;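 0 = vehicle wells; hits needed this value within 50% of zero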
The depositor's hits bear a star; i = inactive; u = inconclusive; x = no result given; & = joins results of further samples. This is a random part of the collection (roughly 2.9% active in at least one column).

molecule	eIF4H FP inh	UUG fidelity	PABP FP inh	CSC inhib	MT1-MMP act inh	MT1-MMP act inh RFP	Env fusion inh	Rce1 inhib
O=CNc1cc(-c2ccc(C(=O)NC3CC3)cc2)cn2c(-c3ccccc3)cnc12	x	-4.7	x	x	-4.0	1.7	-14.3	x
CC(C)N(C(=O)Cn1cc(S(=O)(=O)CC(=O)NCc2ccccc2)c2ccccc21)C(C)C	11.7	0.0	5.1	-25.3	-5.1	-2.6	19.1	i
O=C(NCCCN1CCOCC1)C(=O)N/N=C/c1ccc(F)cc1	1.2	x	2.5	-10.7	x	x	-11.0	i
COc1ccc(N2CCN(C(=O)COC(=O)COc3cc(C)cc(C)c3)CC2)cc1	x	x	x	-18.0	4.6	2.3	9.0	i
C=CCc1cccc(/C=N/NC(=O)C(C)Nc2ccc(C)cc2)c1O (stereo unspecified)	2.9	4.9	15.9	49.9	-3.8	-6.9	0.2	i
CCOc1cc(C)cc2oc(=O)cc(-c3ccccc3)c12	-9.4	-17.6	4.6	-2.3	-6.4	-6.5	x	i
CCCOC(=O)c1ccc(NC(=O)c2ccoc2C)cc1	-0.3	x	0.9	0.6	5.0	5.8	x	i
Cc1cccc(NS(=O)(=O)c2ccc(C)c(C(=O)NCc3ccncc3)c2)c1	x	-12.8	x	14.9	0.0	-3.3	x	i
Cc1ccc(S(=O)(=O)N(CC(=O)N2CCOCC2)c2ccccc2F)cc1	-13.1	-10.3	-2.4	x	-1.5	0.1	5.9	i
CC1(C)N=C(c2cccs2)C(C)(C)N1O	-7.1	-7.9	-5.0	-4.6	-0.5	0.0	x	i
COc1cccc(-n2nnc3c(=O)n(Cc4cccc(C)c4)cnc32)c1	-10.8	-3.5	1.6	0.9	-2.0	1.1	-8.2	i
O=C(CCC1CCCN(C(=O)c2ccoc2)C1)NCc1ccc(F)c(F)c1 (stereo unspecified)	-1.2	3.9	1.3	-5.3	2.7	2.4	2.3	i
O=C(c1ccco1)N1CCN(C/C=C/c2ccccc2)CC1	-10.4	-16.2	3.7	-0.7	1.9	-4.6	x	i
CCNc1nc(N)nc(-c2cc(Cl)ccc2OC)n1	-0.6	-18.7	0.6	-13.2	-3.7	4.0	x	i
COc1ccc(NC(=O)CSc2ccccc2)cc1S(=O)(=O)N1CCCCC1	-4.3	4.3	-12.7	-1.6	1.3	0.0	17.0	i
O=C(CSc1n[nH]c(-c2cccs2)n1)NCc1cccs1	-8.7	x	-2.0	0.0	3.2	4.7	-6.2	i
O=C(COC(=O)/C=C/c1ccccc1[N+](=O)[O-])NCc1ccco1	x	-13.9	x	-12.5	4.0	-0.6	-12.6	x
c1ccc(C2NCCc3ccccc32)cc1 (stereo unspecified)	-9.7	x	-5.5	0.1	-0.7	7.1	9.4	i
Cn1nnnc1SCCNCc1cccnc1	-2.1	-18.1	6.2	-4.8	0.7	1.2	-72.9	i
COc1ccc(N2CC(C(=O)OCC(=O)NCc3ccccc3)CC2=O)cc1 (stereo unspecified)	10.3	-12.0	4.9	-18.2	x	x	x	i

Some of the entries so far, as labelled records:
> c1ccc(C2NCCc3ccccc32)cc1 (stereo unspecified)
  eIF4H FP inh = -9.7
  UUG fidelity = x
  PABP FP inh = -5.5
  CSC inhib = 0.1
  MT1-MMP act inh = -0.7
  MT1-MMP act inh RFP = 7.1
  Env fusion inh = 9.4
  Rce1 inhib = i
> CCNc1nc(N)nc(-c2cc(Cl)ccc2OC)n1
  eIF4H FP inh = -0.6
  UUG fidelity = -18.7
  PABP FP inh = 0.6
  CSC inhib = -13.2
  MT1-MMP act inh = -3.7
  MT1-MMP act inh RFP = 4.0
  Env fusion inh = x
  Rce1 inhib = i

(further entries)
molecule	eIF4H FP inh	UUG fidelity	PABP FP inh	CSC inhib	MT1-MMP act inh	MT1-MMP act inh RFP	Env fusion inh	Rce1 inhib
O=C1Nc2cc(Cl)ccc2C1(N1CCNCC1)C(F)(F)F (stereo unspecified)	2.2	-4.5	2.7	16.6	-30.8	-8.2	-78.6	i
O=C(c1ccc(-n2c(SCc3cccc(F)c3)nc3ccccc3c2=O)cc1)N1CCOCC1	-10.5	-9.7	-5.2	4.1	-1.7	-5.7	-9.9	i
COc1ccc(CC(=O)NNC(=O)c2ccc(NC(C)=O)cc2)cc1	5.0	x	8.4	-3.9	-3.6	-0.5	-8.1	i
O=C1CCC(C(=O)OCC(=O)N2N=C3/C(=C/c4ccccc4)CCCC3C2c2ccccc2)N1 (stereo unspecified)	-12.9	8.1	-7.2	-3.3	0.0	-9.1	39.8	i
CC1(C(=O)Nc2cnc3ccccc3c2)CCN1Cc1ccccc1Cl (stereo unspecified)	x	-7.6	x	x	4.5	-3.3	u	x
COc1ccc(NS(=O)(=O)c2cc(N=Nc3c(O)[nH]c(=O)[nH]c3=O)ccc2OC)cc1Br	x	-6.3	x	x	-3.1	1.6	-13.1	x
Cc1cc(C)n2nc(SCc3cccc(S(=O)(=O)N(C)C)c3)nc2n1	2.2	-11.9	-3.7	16.7	3.1	-6.9	0.1	i
Cc1ccc(S(=O)(=O)N2CCCOC2CNC(=O)C(=O)NCCC2=CCCCC2)cc1 (stereo unspecified)	1.9	x	-3.7	-7.7	-4.2	-16.1	59.8*	i
O=C(c1ccc2c(Cl)c3c(nc2c1)CCCC3)N1CCN(c2ccc(F)cc2)CC1	-1.3	-0.3	-0.9	x	x	x	38.9	i
COc1ccccc1CCN=C(N)NS(=O)(=O)c1ccccc1	-2.2	x	-7.7	-7.0	2.1	2.7	24.8	i
CC(C)c1cc(C(F)(F)F)n2nc(C(=O)Nc3ccc4c(c3)OCO4)cc2n1	5.7	x	6.0	20.7	1.6	-1.2	-63.0	i
CN(C)c1cccc2c1C(=O)c1ccccc1C2=O	-2.0	x	-9.5	-2.3	16.8	3.2	-5.4	i
COc1ccc(CCNc2cc(=O)[nH]c(N)n2)cc1	-2.1	-9.4	-4.2	27.0	0.8	1.3	x	i
CCOC(=O)c1ccc2c(c1)[n+](CC)c(C)n2-c1ccccc1	-9.0	-6.0	72.7*	-1.7	-1.7	0.1	-3.6	i
COc1ccc(Br)cc1-c1noc(-c2ccccc2)n1	-7.4	-6.6	11.2	-0.7	-7.0	-0.6	x	i
Cc1nc(Cl)sc1C(=O)NC(C)c1ccc(Cl)cc1 (stereo unspecified)	3.5	7.5	-3.7	12.4	-4.9	-7.6	-2.7	i
C=CCNC(=O)c1ccccc1NC(=O)Nc1ccccc1	3.5	2.7	2.5	0.8	0.8	0.2	x	i
CSc1ccc(CN(C)CCc2ccccn2)cc1	23.8	-11.3	12.1	1.2	3.1	1.5	11.9	i
CCC(C)(C)n1nnnc1C(c1cccnc1)N1CCC(Cc2ccccc2)CC1 (stereo unspecified)	-16.1	x	-0.1	8.1	3.2	-8.3	12.9	i
CN1CCN(c2ccc([N+](=O)[O-])cc2C(=O)N2CCCCC2)CC1	-0.6	x	9.9	-10.2	-1.6	3.6	10.0	i
O=C(Cc1cccc(NC(=O)C2CCN(C(=O)C3CCCCC3)CC2)c1)Nc1cccc(C(=O)N2CCCC2)c1	x	4.5	x	-19.8	-2.2	-3.1	15.1	x
O=C(Nc1ccc2oc(=O)ccc2c1)c1ccc(-c2ccccc2[N+](=O)[O-])o1	19.1	x	16.8	14.9	-0.9	-1.1	-486.1	i
CCN(CC)C(=O)c1ccc(C)c(Br)c1	-2.4	4.3	1.5	-13.0	-0.3	6.3	-18.6	i
CC(CN1CCC(n2nccc2NC(=O)CCCc2ccccc2)CC1)c1ccccc1 (stereo unspecified)	14.5	-14.1	12.5	-11.6	0.4	-2.0	-196.3	i
CC1CN(S(=O)(=O)c2cccc(C(=O)OC(C)C(=O)NC3CCCCC3C)c2)CC(C)O1 (stereo unspecified)	-4.1	5.3	11.1	-6.2	0.3	1.1	-8.1	i
O=C(NCc1ccc2c(c1)OCO2)C1CCN(S(=O)(=O)N2CCCCC2)CC1	7.3	0.2	-2.0	-4.5	2.6	0.8	-58.1	i
Cc1ccc(CNC(=O)/C=C/c2cccs2)cc1	4.6	x	4.9	-8.9	-3.4	0.9	-19.8	i
Nn1c(SCc2nc3ccccc3[nH]2)nnc1-c1ccccc1	-0.9	-14.2	-1.5	-12.8	1.5	2.7	-113.3	i
Cc1ccc(-n2nc(C(=O)O)cc2-c2ccccc2Cl)cc1	-0.5	-11.9	12.7	-11.7	-0.1	0.4	-6.4	i
COc1cc(C(C)=O)ccc1OCC(=O)Nc1ccc(C)c(S(=O)(=O)N2CCCCCC2)c1	x	-8.7	x	-1.7	13.4	-27.7	5.3	x
COC(=O)C(NC(=O)CSc1nc(N)cc(=O)[nH]1)c1ccccc1 (stereo unspecified)	5.3	x	-5.6	8.7	-1.2	-1.5	-7.5	i
O=C(COC(=O)CCC(=O)c1cccs1)Nc1ccc(S(=O)(=O)N2CCOCC2)cc1	0.4	-11.9	-12.0	-22.6	5.5	3.0	x	i
CCCCOC(=O)Nc1cc(Cl)ccc1C	5.1	-11.6	7.4	14.9	-1.8	-3.4	x	i
Cc1cccc(N2C(=O)c3ccc(Br)cc3C2=O)n1	-1.0	-9.4	2.2	-14.3	-1.3	0.9	-9.5	i
Cc1ccc(O)c(N=Cc2cc(Cc3ccccc3)cc([N+](=O)[O-])c2O)c1	48.2	x	13.0	x	-0.7	-1.1	18.9	x
Cc1cc(=O)oc2cc(OCC(=O)NC3CC(C)(C)NC(C)(C)C3)ccc12	-4.0	-10.0	7.3	6.2	-0.2	3.9	-4.9	i
COc1cccc2c(=O)c3c([nH]c12)OC(C)(C)C3	x	-17.3	x	-3.4	1.7	4.3	6.1	i
Cc1ccc(NS(=O)(=O)c2c(C)noc2C)cc1	-7.5	-7.4	-2.5	-16.0	2.5	3.5	-33.8	i
CC(C)COC(=O)CCn1[nH]c(=O)c2ccccc2c1=O	-8.1	-6.1	4.2	8.6	-2.0	3.9	-28.4	x
O=C(CCc1ccccc1)NNC(=O)c1cc(Cl)ccc1O	-2.4	-13.4	-1.8	17.8	3.5	0.2	5.3	i
COc1ccc(Cl)cc1NC(=O)C/C(C)=N/NC(=O)CCc1ccccc1	2.8	-18.6	1.0	x	1.6	4.6	-2.0	i
CC1(C)CC(=O)C=C(Nc2cccc(O)c2)C1	5.7	3.4	-3.0	-11.0	2.1	4.8	x	i
C[C@@H]1CN([C@H](C)CO)C(=O)CCCn2nncc2CO[C@H]1CN(C)S(=O)(=O)c1cccc(F)c1	x	-31.2&-1.7	x	x	3.3	6.2	-2.0	x
COc1ccc(C(=O)NNC(=O)C2=NN(c3ccccc3)C(=O)CC2)cc1	-5.8	-4.4	1.9	2.6	-0.1	5.1	1.4	i
C[C@@H]1O[C@@H](O[C@H]2[C@H](Oc3cc(O)c4c(c3)O[C@H](c3ccc(O)cc3)CC4=O)O[C@H](CO)[C@@H](O)[C@@H]2O)[C@H](O)[C@H](O)[C@H]1O	-2.6	-9.2	-0.8	-10.1	-2.9	-0.1	15.6	i
CCCN1CC(=O)N2Cc3[nH]c4ccccc4c3C[C@H]2C1=O	1.1	-6.8	-2.6	-19.4	0.9	-1.3	-6.6	i
O=C(CCS(=O)(=O)c1cc(Br)cc2c1N(C(=O)C1CC1)CC2)N1CCN(c2ccccn2)CC1	-9.3	x	9.8	-14.8	-5.3	-0.7	4.0	i
CCc1nnc(NS(=O)(=O)c2ccc(NC(=S)NC(=O)/C=C/c3ccc(F)cc3)cc2)s1	21.2	x	-1.3	-6.6	-1.5	-3.1	-2.8	i

Screening results as filed in PubChem BioAssay.
